Bioassay records deposited in PubChem BioAssay by ICCB-Longwood Screening Facility, Harvard Medical School.
HCMV UL50-53 inh: cytomegalovirus nuclear egress complex inhibition | HTRF UL50-UL53 interaction, normalized percent inhibition | inhibition, % (no concentration beside the values) | 190,000 compounds, 0.15% hits;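 active means both replicates at 50% or more, plus weaker picks with an unusually low signal ratio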;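 further: stock transfer was 100 nL into about 20 µL; 0% = negative control wells and 100% = wells with untagged competitor protein; inactives centre near -12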
GIV Gai3 FP: blocks GIV peptide binding to rat Galpha-i3 | 210,000 compounds, 0.42% hits | percent of control (FP), % (test concentration not listed) | Galpha-i3/FITC-GIV peptide fluorescence polarization, 90 min; stronger effect = lower value; scaled: aluminum fluoride 0%, vehicle 100% | AID 1224905;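 active means replicate mean at 85% of control or lower, very high polarization wells dropped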;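 further: wells of about 15 µL received 100 nL stock; the first replicate is given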
Target sequence (P08753 whole entry, looked up): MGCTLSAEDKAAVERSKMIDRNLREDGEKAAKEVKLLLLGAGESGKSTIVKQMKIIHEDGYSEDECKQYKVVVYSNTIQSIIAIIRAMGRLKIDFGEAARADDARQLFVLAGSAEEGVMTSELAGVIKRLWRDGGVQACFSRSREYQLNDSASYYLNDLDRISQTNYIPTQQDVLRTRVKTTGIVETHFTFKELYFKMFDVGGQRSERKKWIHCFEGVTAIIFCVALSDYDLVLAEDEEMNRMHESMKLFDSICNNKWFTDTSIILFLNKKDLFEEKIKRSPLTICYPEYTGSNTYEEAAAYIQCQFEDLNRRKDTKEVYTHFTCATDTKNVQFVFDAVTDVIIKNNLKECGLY
Sa growth 42C: inhibitors of Staphylococcus aureus growth at 42 °C | 170,000 compounds, 0.53% hits | S. aureus RN4220 growth, OD600, 20 h; stronger effect = lower value | AID 720641 | relative growth, % (test concentration not listed);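 active means growth at 42 °C up to 50% and 20 or more points under that at 30 °C, or under 10% at both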;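 further: 300 nL library stock went into each well; scaled to the means of positive and negative controls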
Sa growth 42C second temp: second read-out of Sa growth 42C, no call of its own (marks repeat the call); relative growth, %; measured here: growth at 30 °C;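 optical density after 20 h as mean of two plates; 100% = untreated growth and lower means inhibition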
Starred values were filed as active, the others as inactive; · = no result given; & = joins results of further samples. Compounds as they come; about 0.8% have a hit in one of these screens.

SMILES	HCMV UL50-53 inh	GIV Gai3 FP	Sa growth 42C	Sa growth 42C second temp
CCOC(=O)C(CC)n1nc(C)n2c(cc3sccc32)c1=O (stereo unspecified)	-6	106	93	88
Cc1onc(-c2ccccc2)c1N1C(=O)CCN(Cc2ccccc2)C1=O	1	98	98	100
c1coc(C2=Nc3cccc4cccc(c34)N2)c1	-70	106	69	31
CC(C)(C)OC(=O)CSc1nc2ccccc2n1CCC#N	-7	·	110	101
Cc1ccc(C(=O)N2CCN(S(=O)(=O)c3ccc(F)cc3)CC2)s1	-18	·	119	105
Cn1c2ccccc2c2nnc(SCc3ccc(F)cc3Cl)nc21	2	·	107	94
COc1cc(C2=Nc3c(c(C)nn3-c3ccccc3)P(=O)(N3CCOCC3)O2)cc(OC)c1OC (stereo unspecified)	5	·	101	95
COc1ccc(C2CC(=O)c3cc(-c4nc(-c5cccc([N+](=O)[O-])c5)cs4)c(=O)n(-c4ccc(F)cc4)c3C2)cc1 (stereo unspecified)	-18	101	95	82
Cc1cc(NC(=O)CSc2ncnc3sc(C)c(C)c23)n(-c2ccccc2)n1	-14	·	101	98
CCCn1c(-c2ccc(N)cc2)nc2ccccc21	-3	·	90	81
CCN(CC)C(=O)c1cc(-c2ccco2)nc2ccccc12	-26	·	136	86
O=C(CCC1N=C2c3ccccc3N=C(SCc3ccccc3F)N2C1=O)NC1CCCCC1 (stereo unspecified)	·	100	93	92
Cc1ccc(N2C(=O)CC(Cc3ccccc3)C2=O)cc1 (stereo unspecified)	·	99	86	88
CCC(Sc1ncccc1C(=O)O)C(=O)N1CCOCC1 (stereo unspecified)	4	109	100	90
CN(Cc1ccc(F)cc1)Cc1cc(=O)n2ccccc2n1	-34	90	·	·
CCN(c1ccc(OC)cc1)S(=O)(=O)c1ccc2c(c1)OCC(C(=O)N1CCCC1)O2 (stereo unspecified)	-10	96	103	92
COc1cc(CO)ccc1OCc1ccccc1C	2	113	109	107
CCOC(=O)c1sc(/S(C)=N/S(=O)(=O)c2cccc(Cl)c2)c2c1CCC=C2 (stereo unspecified)	-48	104	101	88
O=C(O)Cc1ccccc1C(=O)O	-4	102	115	90
Cc1ccc(C(=O)Nc2nncs2)cc1	-8	98	97	91
CC1CCN(CCn2c(=S)[nH]c3ccccc3c2=O)CC1	-6	104	104	95
CCC(C)NC(=O)CSc1nc2ccccc2c2nc3ccccc3n12 (stereo unspecified)	7	101	94	95
Cc1ccc(-c2c(C(F)(F)F)nn3c(N4CCN(c5ccccn5)CC4)cc(C)nc23)cc1	-25	98	·	·
CN1C(C(=O)N2CCN(C(=O)c3ccco3)CC2)=CC(c2ccc(F)cc2)=NS1(=O)=O	-49	104	90	77
CC(C)(C)NC(=O)NCc1nc(-c2ccccc2)no1	-40	100	101	103
O=C1Cc2cc(C(=O)CSc3nnc(-c4cccs4)n3CC3CCCO3)ccc2N1 (stereo unspecified)	-8	·	109	93
Cc1cccc(OC(=O)c2cc(-c3ccc4c(c3)OCCO4)on2)c1C	6&-8	104&105	0.1*	-0.5*
CCOC(=O)c1c(COC(C)=O)n(C)c2cc(Br)c(OC)cc12	11	·	95	93
O=C1CC(c2nnc(Cc3ccc4c(c3)OCO4)o2)CN1c1ccccc1 (stereo unspecified)	-18	104	102	74
COc1ccc(NC(=O)CCCn2c(=S)[nH]c3ccccc3c2=O)cc1	·	98	99	79
CCN1c2ccccc2-c2nc(SCC(=O)Nc3c(C)cc(C)cc3C)ncc2S1(=O)=O	·	103	87	85
COc1ccccc1Nc1cc(N2CCOCC2)c2nonc2c1[N+](=O)[O-]	-9	107	·	·
CCc1ccc(S(=O)(=O)NCCN2CCN(S(=O)(=O)c3ccc(CC)cc3)CC2)cc1	-18	104	107	93
Cc1ccc(-c2csc(-c3nc(-c4ccc5c(c4)OCO5)cs3)n2)cc1C	-5	100	·	·
CCc1cccc(-n2c(-c3ccco3)nc3c(cnn3-c3ccccc3Cl)c2=O)c1	·	113	91	92
Cc1nc(-c2cccc(F)c2)sc1CCNC(=O)c1ccc(C(C)(C)C)cc1	2	100	·	·
CCn1c(SCC(=O)Nc2ccnn2C2CCCC2)nc2cc(S(N)(=O)=O)ccc21	-37	·	80	81
O=C1CCCC(O)=C1N=Nc1ccc(S(=O)(=O)N2CCOCC2)cc1	-79	·	90	101
S=C1SCN(C2CCCCC2)CN1Cc1ccccc1	-35	99	79	78
Cc1ccc(-c2cc(C(=O)Nc3ccccc3C(N)=O)c3ccccc3n2)cc1C	-8	113	·	·
COc1ccc2[nH]c(O)c(N=O)c2c1	·	106	104	80
Cc1cc(CN(C2CCCCC2)S(=O)(=O)c2cccc(F)c2)c(C)n1-c1ccccc1	-14	107	·	·
CCC(C)n1nc(NC(C)=O)c2cc3cc(C)ccc3nc21 (stereo unspecified)	-29	98	90	98
CC(O)c1ccc(-c2ccc(CNCCCn3ccnc3)o2)cc1 (stereo unspecified)	-16	107	·	·
CCN(Cc1ccccc1)c1ncc(C(=O)O)cc1NS(=O)(=O)c1ccc(OC)cc1	-26	113	·	·
CC1(C)CC(=O)C2=C(C1)OC1=C(C(=O)CC(C)(C)C1)C2c1ccc(F)cc1F	7	110	·	·
O=C(O)c1[nH]c2ccccc2c1CC(=O)N1CCCCC1	-9	98	113	86
O=S(=O)(NCc1ccc2c(c1)OCO2)c1cccc2nsnc12	-69	102	120	98
COc1cccc2sc(=NC(=O)c3ccccc3)n(C)c12	·	109	80	97
CSc1ccc(CN(C)CC(=O)NC(=O)NC2CCCCC2)cc1	-16	·	85	89
The results go on:
SMILES	HCMV UL50-53 inh	GIV Gai3 FP	Sa growth 42C	Sa growth 42C second temp
CCn1c(C)c(CCC(=O)NCc2ccc3c(c2)OCO3)c(=O)n2nc(-c3ccccc3OC)cc12	-28	97	·	·
Cc1cc2oc(C(=O)Nc3sc4c(c3C(=O)NCc3ccccc3)CCCC4)cc(=O)c2cc1C	-5	100	92	88
CCCCN1C(SCC(=O)NCCC)=NS(=O)(=O)c2ccccc21	-16	104	99	85
Cc1cc(C(=O)N2CCCC2c2ccc(Cl)cc2)on1 (stereo unspecified)	-24	109	·	·
O=C1CSC2=NCN(c3ccc(-c4ccccc4)cc3)CN12	-6	·	97	89
CCOCCOC(=O)C(C)Oc1ccc2c(=O)c(Oc3ccc(C(C)(C)C)cc3)coc2c1 (stereo unspecified)	8	113	·	·
CCN[C@H]1C[C@H](C)S(=O)(=O)c2sc(S(N)(=O)=O)cc21	-2&-3	105	100	98
Cc1sc2ncc(C(=O)NC(C)(C)C)c(=O)n2c1C	-10	106	·	·
COC(=O)c1ccc(NC(=O)Cc2ccc(F)cc2)cc1	-3	108	113	89
S=c1[nH]nc(CSc2nc(-c3ccccc3)cn2-c2ccccc2)n1-c1ccccc1	-4	104	105	70
C=CCN(C(=O)c1cc2c(-c3ccc(OC)c(OC)c3)nn(C)c2s1)c1ccccc1	·	103	83	82
Cc1noc(C)c1COC(=O)/C=C/c1ccco1	-67	·	98	91
Cc1ccc(CSc2nc3cccnc3n2Cc2ccc(C(=O)NC3CCCCC3)cc2)cc1	·	103	118	86
Cc1ccc(NC(=O)CCS(=O)(=O)c2ccc3c(c2)oc(=O)n3C)cc1N(C)C	-15	113	·	·
Cc1cccc(-c2noc(-c3cc(C4CC4)[nH]n3)n2)c1	-27	103	·	·
O=c1oc2ccc3ccccc3c2cc1-c1nnc(Nc2ccccc2)s1	-44	107	93	93
CC(C)(C)NC(=O)CSc1nc2nc[nH]c2c(=O)[nH]1	-4	102	·	·
CC1(C)CC(=O)C(C2C3=C(CC(C)(C)CC3=O)OC3=C2C(=O)CC(C)(C)C3)=C(O)C1	-13	·	103	87
CCc1cccc(N2C(=O)CS(=O)(=O)C23C(=O)N(Cc2ccccc2)c2ccc(C)cc23)c1 (stereo unspecified)	·	103	99	95
COc1nc(N(C)C)nc(N2C(=N)N(c3ccc(Cl)c(Cl)c3)C(=O)C2C)n1 (stereo unspecified)	-15	104	·	·
COc1ccc(-c2cn3cccnc3n2)cc1NC(C)=O	-58	100	76	92
Cc1noc(C)c1COC(=O)c1cc(S(=O)(=O)N(C)c2ccc(F)cc2)ccc1Cl	10	·	114	95
Cc1ccc(-c2noc(CCC(=O)N3CCCCC3c3nc4ccccc4s3)n2)cc1 (stereo unspecified)	1	·	87	88
CCOC(=O)c1cccc(Nc2nc(C)cc(C)n2)c1	·	101	103	101
CC(C)n1cnc(S(=O)(=O)N2CCCC(C(=O)Nc3ccc4c(c3)OCCO4)C2)c1 (stereo unspecified)	-1	107	·	·
CC1CN(C(=O)C(c2ccccc2)c2ccccc2)CC(C)O1 (stereo unspecified)	-4	99	104	102
COc1ccc(OC)c(NC(=O)c2noc3c2CCCC3)c1	·	95	101	94
CN(C(=O)c1cc2sccc2n1Cc1ccc(F)cc1)C1CCCCC1	7	107	76	78
COc1ccc(CCNC(=O)c2ccc3c(c2)N(Cc2ccc(Cl)cc2)CCS3)c(OC)c1	-40	103	112	85
CC1SC(=S)N(c2ccccc2)C1=O (stereo unspecified)	8	100	69	60

Shown with two lines to a compound: three of the compounds above.
Values run as follows: HCMV UL50-53 inh, GIV Gai3 FP, Sa growth 42C, Sa growth 42C second temp
CCOC(=O)c1cccc(Nc2nc(C)cc(C)n2)c1
 : ·, 101, 103, 101
CC(C)n1cnc(S(=O)(=O)N2CCCC(C(=O)Nc3ccc4c(c3)OCCO4)C2)c1 (stereo unspecified)
 : -1, 107, ·, ·
CC1CN(C(=O)C(c2ccccc2)c2ccccc2)CC(C)O1 (stereo unspecified)
 : -4, 99, 104, 102

Next entries follow.
SMILES	HCMV UL50-53 inh	GIV Gai3 FP	Sa growth 42C	Sa growth 42C second temp
COc1ccc(C)cc1S(=O)(=O)N1CCc2cc3ccc(C)cc3nc21	-6	96	·	·
O=S(=O)(NC1CCCCC1)c1ccc(-c2cc(C(F)(F)F)no2)s1	-2	101	88	93
O=C(CN1CCN(c2ccc(Cl)cc2)CC1)Nc1ccc(F)c(F)c1	·	101	107	86
CC(NC(=O)NC1(c2ccccc2)CC1)C12CC3CC(CC(C3)C1)C2 (stereo unspecified)	3	·	102	95
O=C(Nc1ccc(F)cc1F)c1cc2c(=O)n3ccccc3nc2s1	-32	99	90	95
COc1cccc(CNC(=O)CCc2cn(Cc3ccccc3Cl)c3ccccc23)c1	·	112	112	84
COc1ccc(C2/C(=C(\O)c3ccccc3)C(=O)C(=O)N2CCN2CCOCC2)cc1 (stereo unspecified)	·	98	96	86
OC1(C#CCN2CCCCC2)c2ccccc2C2CCCC21 (stereo unspecified)	-5	·	102	84
O=S(=O)(c1ccc2ccccc2c1)N1CCOCC1	-23	·	109	97
Cc1nn(CCC#N)c2nc(-c3ccc(F)cc3)cc(C(=O)O)c12	5	·	105	90

Compound profiles, as listed above:
O=S(=O)(NC1CCCCC1)c1ccc(-c2cc(C(F)(F)F)no2)s1 is entered as HCMV UL50-53 inh: -2; GIV Gai3 FP: 101; Sa growth 42C: 88; Sa growth 42C second temp: 93
COc1ccc(C2/C(=C(\O)c3ccccc3)C(=O)C(=O)N2CCN2CCOCC2)cc1 (stereo unspecified) is entered as HCMV UL50-53 inh: ·; GIV Gai3 FP: 98; Sa growth 42C: 96; Sa growth 42C second temp: 86
OC1(C#CCN2CCCCC2)c2ccccc2C2CCCC21 (stereo unspecified) is entered as HCMV UL50-53 inh: -5; GIV Gai3 FP: ·; Sa growth 42C: 102; Sa growth 42C second temp: 84

More entries follow:
SMILES	HCMV UL50-53 inh	GIV Gai3 FP	Sa growth 42C	Sa growth 42C second temp
CC1=C(C(=O)Nc2ccccc2)C(c2ccc(C(C)C)cc2)n2c(nc3ccccc32)N1 (stereo unspecified)	0	·	93	91
Cc1ccc(C(=O)NCc2ccccc2)cc1	-8	101	107	93
Cc1ccccc1C(=O)Nc1cc2c(cc1N1CCOCC1)n(C)c(=O)n2C	-7	98	109	93
O=C1CC(=Nc2ccc(F)cc2)NN1	-29	99	92	82
CC(C)[C@H](NC(=O)c1cc2ccccc2o1)c1nc2ccccc2[nH]1	3	·	110	93
COc1ccc(-c2noc(CN(Cc3ccco3)S(C)(=O)=O)n2)cc1	-8	99	79	89
CCCNC(=O)C1CCN(c2nc3ccc(C)cc3[nH]2)CC1	·	100	88	88
COc1ccc(Cl)cc1Nc1ccc2cc(S(=O)(=O)N3CCCCC3)ccc2n1	·	118	94	88
Cc1c(C(=O)Oc2cccc3cccnc23)oc2ccccc12	6	99	97	99
Cc1nc2c(-c3ccccc3)c(C)nn2c(C)c1CCC(=O)NCc1ccc(Cl)cc1	-26	102	100	90

Molecules above containing a cyano group (two):
SMILES	HCMV UL50-53 inh	GIV Gai3 FP	Sa growth 42C	Sa growth 42C second temp
CC(C)(C)OC(=O)CSc1nc2ccccc2n1CCC#N	-7	·	110	101
Cc1nn(CCC#N)c2nc(-c3ccc(F)cc3)cc(C(=O)O)c12	5	·	105	90

Additional records
SMILES	HCMV UL50-53 inh	GIV Gai3 FP	Sa growth 42C	Sa growth 42C second temp
COc1cccc(CCNC(=O)C2CCN(c3nc4ccc(Cl)cc4[nH]3)CC2)c1	-27	102	·	·
CC(C)CNC(=O)CCSc1nc(-c2ccc3c(c2)OCO3)cc(C(F)(F)F)n1	-19	99	85	95
Cc1ccc(NC(=O)c2nnc(CCCC(=O)N3CCN(c4ccccn4)CC3)s2)cc1	-27	98	·	·
COc1ccc(NC(=O)C(=O)NCC(c2cccnc2)N2CCc3ccccc3C2)cc1 (stereo unspecified)	-22	104	96	82
CC1C2=C(CC(C)(C)CC2=O)OC2=C1C(=O)CC(C)(C)C2	9	·	94	93
O=C(O)COCC(=O)NC1CCCCNC1=O (stereo unspecified)	-16	104	98	94
